VACV mCherry inh – qHTS for Stage-Specific Inhibitors of Vaccinia Orthopoxvirus: mCherry Reporter Primary qHTS | Vaccinia virus mCherry reporter infection, fluorescence; about a quarter of the inactives have no number | Potency, µM (top dose mostly 36.5 µM), for inactives: at the top dose activity change, negative = inhibition, actives largely listed as inhibitors | 0.63% of 310,000 active | AID 720579, 2013; active = well fitted inhibition curve with a large enough effect; inconclusive = small, poorly fitted or top-dose-only effect; inactive = no such curve, though single readings can be large or run the other way; tested in A549 cells; also: nearly all actives have a fitted effect of over 35% in size; inactives centre near -10
Vaccinia Venus – qHTS for Stage-Specific Inhibitors of Vaccinia Orthopoxvirus: Venus Reporter Primary qHTS. Potency, µM (series often up to 36.5 µM), for inactives: at the top dose activity change, negative = inhibition, usual class: inhibitors. 0.46% of 330,000 active. Vaccinia virus Venus reporter expression, fluorescence; active means well fitted inhibition curve with a large enough effect; inconclusive means small, poorly fitted or top-dose-only effect; inactive means no such curve, though single readings can be large or run the other way; tested in A549 cells; also: nearly all actives have a fitted effect of over 30% in size; inactives centre near -10
* hit, by the source's call; i = inactive; ? = inconclusive; / = not tested or not shown; & = joins results of further samples; [ ] = dose if it differs, or a comment. % is scaled to controls: 0 for no effect and ±100 for the full control effect; potency is read from the fitted curve at half-maximal effect. This is a random part of the collection (roughly 0.87% active in at least one column).

Preview:
Structure	VACV mCherry inh	Vaccinia Venus
O=C(CSc1nc2ccccc2[nH]1)N/N=C/c1ccco1	-23.9%	-9.8%
Cc1cccc(N2CCN(C(=O)c3c4c(nc5ccccc35)C(=O)N(C3CCCCC3)C4)CC2)c1C	-20.4%	-15.7%
COc1ccc(OCc2nn3c(-c4ccccn4)nnc3s2)cc1	-23.5%	-12.0%
Cc1ccc(S(=O)(=O)NC(=O)C2(C)CCN2C(=O)Cc2ccc(C(C)(C)C)cc2)nc1 (configuration not stated)	i	7.6%
O=C(CN1C(=O)NC2(CCCC2)C1=O)Nc1cc(Cl)ccc1N1CCCCC1	-26.8%	-20.7%
CCCCCCC[C@@H](C/C=C/CCC(=O)N(C)C/C(=C/Cl)C/C(=C\C(=O)N1CC(OC)=CC1=O)OC)OC	10µM*	?
COc1ccc(Sc2cnn(-c3ccccc3)c(=O)c2Cl)cc1	12.6µM*	?
CCC1(CC)NC(=O)N(CC(=O)OC(C)C(=O)Nc2ccc(NC(C)=O)cc2)C1=O (configuration not stated)	-6.6%	-3.0%
O=C(NCc1ccco1)c1c(F)cccc1Cl	-2.6%	-12.6%
CCCc1ccc(OCC(=O)Nc2ccc(Cl)cc2C(=O)c2ccccc2)cc1	-14.4%	-11.7%
COc1ccccc1C(=O)NC(=O)COC(=O)/C(=C/c1ccccc1)NC(C)=O	-10.3%	-8.5%
CC1CN(c2ncnc3c2c(-c2ccccc2)cn3-c2ccc(F)cc2)CC(C)O1 (configuration not stated)	-12.1%	-12.3%
O=C(Nc1ccc(F)cc1F)c1ccc(-n2cccn2)c([N+](=O)[O-])c1	-7.4%	-5.9%
Cc1ccc2nc(Nc3nc(-c4ccccc4)cc(=O)[nH]3)nc(C)c2c1	/	?
O=C1C=C(c2cc3ccccc3s2)C[C@@H](c2ccc3c(c2)OCO3)C1	i	16.3%
CC(C)N1CCN(Cc2nc3ccccc3s2)CC1CCO (configuration not stated)	-1.9%	-0.9%
Oc1ccc(/C=N/Nc2cc(N3CCOCC3)nc(N3CCOCC3)n2)cc1O	-22.7%	?
O=C(OCCCc1ccncc1)c1ccc(S(=O)(=O)N2CCOCC2)cc1	i	-16.3%

The list itself, previewed entries included:
Structure	VACV mCherry inh	Vaccinia Venus
O=C(CSc1nc2ccccc2[nH]1)N/N=C/c1ccco1	-23.9%	-9.8%
Cc1cccc(N2CCN(C(=O)c3c4c(nc5ccccc35)C(=O)N(C3CCCCC3)C4)CC2)c1C	-20.4%	-15.7%
COc1ccc(OCc2nn3c(-c4ccccn4)nnc3s2)cc1	-23.5%	-12.0%
Cc1ccc(S(=O)(=O)NC(=O)C2(C)CCN2C(=O)Cc2ccc(C(C)(C)C)cc2)nc1 (configuration not stated)	i	7.6%
O=C(CN1C(=O)NC2(CCCC2)C1=O)Nc1cc(Cl)ccc1N1CCCCC1	-26.8%	-20.7%
CCCCCCC[C@@H](C/C=C/CCC(=O)N(C)C/C(=C/Cl)C/C(=C\C(=O)N1CC(OC)=CC1=O)OC)OC	10µM*	?
COc1ccc(Sc2cnn(-c3ccccc3)c(=O)c2Cl)cc1	12.6µM*	?
CCC1(CC)NC(=O)N(CC(=O)OC(C)C(=O)Nc2ccc(NC(C)=O)cc2)C1=O (configuration not stated)	-6.6%	-3.0%
O=C(NCc1ccco1)c1c(F)cccc1Cl	-2.6%	-12.6%
CCCc1ccc(OCC(=O)Nc2ccc(Cl)cc2C(=O)c2ccccc2)cc1	-14.4%	-11.7%
COc1ccccc1C(=O)NC(=O)COC(=O)/C(=C/c1ccccc1)NC(C)=O	-10.3%	-8.5%
CC1CN(c2ncnc3c2c(-c2ccccc2)cn3-c2ccc(F)cc2)CC(C)O1 (configuration not stated)	-12.1%	-12.3%
O=C(Nc1ccc(F)cc1F)c1ccc(-n2cccn2)c([N+](=O)[O-])c1	-7.4%	-5.9%
Cc1ccc2nc(Nc3nc(-c4ccccc4)cc(=O)[nH]3)nc(C)c2c1	/	?
O=C1C=C(c2cc3ccccc3s2)C[C@@H](c2ccc3c(c2)OCO3)C1	i	16.3%
CC(C)N1CCN(Cc2nc3ccccc3s2)CC1CCO (configuration not stated)	-1.9%	-0.9%
Oc1ccc(/C=N/Nc2cc(N3CCOCC3)nc(N3CCOCC3)n2)cc1O	-22.7%	?
O=C(OCCCc1ccncc1)c1ccc(S(=O)(=O)N2CCOCC2)cc1	i	-16.3%
CC(Cc1ccccc1)NCCC(c1ccccc1)c1ccccc1 (configuration not stated)	i	-7.9%
CC(C)(C)CC(=O)Nc1nnc(C(F)(F)F)s1	-14.6%	-9.7%
COc1cc(C2Nc3ccccc3C(=O)N2NS(C)(=O)=O)ccc1O (configuration not stated)	-10.7%	-0.2%
O=C(O)CC(NCc1ccco1)C(=O)Nc1cccc(O)c1 (configuration not stated)	-10.9%	-0.9%
O=C(COC(=O)CCc1ccc(S(=O)(=O)N2CCCCC2)cc1)Nc1cccc2ccccc12	i	-5.4%
COc1ccc(C2(c3ccc(OC)cc3)NC(=O)N(CC(=O)Nc3cc(C)ccc3OC)C2=O)cc1	?	?
Cc1ccc(N2C(=O)CSC23C(=O)N(CC(=O)Nc2ccc(C)cc2C)c2ccccc23)cc1 (configuration not stated)	-17.4%	-16.9%
COc1ccccc1NC(=O)C(=O)NCc1ccncc1	i	-11.3%
CNCc1ccccc1Sc1cccc2ccccc12	-19.2%	-26.5%
CCC(C)NC(=O)C(=O)NCc1ccncc1 (configuration not stated)	-2.0%	-2.9%
COc1ccc(C(=O)COC(=O)c2cnc(C)cn2)c(OC)c1	i	-12.2%
Cc1ccc2nc(NC(=O)CN3C(=O)NC4(CCCC4)C3=O)sc2c1	-15.3%	-22.5%
Cc1nc(N2CCOCC2)[nH]c(=O)c1C	i	-6.3%
O=C(N/N=C\c1cccnc1)C1c2ccccc2Oc2ccccc21	-7.7%	-12.0%
CCOC(=O)c1c(C)oc2c1cc(O)c1ccccc12	-10.3%	-1.4%
Cc1ccc(-c2nc(SCCOc3ccccc3C)n3[nH]c(=O)cc3n2)cc1	i	-8.1%
CCOc1ccc(/C=C2\SC(=S)N(CCCC(=O)NCCCN3CCOCC3)C2=O)cc1	-0.2%	15.2%
O=C(Nc1cc(S(=O)(=O)N2CCCCC2)ccc1O)c1ccccc1NS(=O)(=O)c1ccc(F)cc1	-7.0%&-1.5%	-3.3%&-21.5%
Cc1ccc(CN2CCN(Cc3cccc(C)n3)CC2CCO)cc1 (configuration not stated)	-12.4%	-2.2%
CCN(CC)C(=O)CSc1nc2cc3c(cc2c(=O)n1CCCC(=O)NCc1ccc(OC)cc1)OCO3	1.5%&-2.4%	-0.3%&-11.9%
CCCc1cc(=O)[nH]c(SCc2ccccc2)n1	-19.1%	-17.7%
O=C(COC(=O)c1ccco1)Nc1ccc(Cl)cn1	i	-9.3%
COc1ccc(SCc2cc(=O)c3ccc(C)c(C)c3[nH]2)cc1	16.3%	1.0%
O=C(Nc1ccc(CN2CCOCC2)cc1)c1ccc(-c2ccc(Br)cc2)o1	-26.2%	?
O=Cc1c(C(=O)O)n(Cc2ccccc2Cl)c2ccccc12	-13.5%	-13.9%
CCN(C1CCS(=O)(=O)C1)S(=O)(=O)c1ccc(Cl)s1 (configuration not stated)	-11.9%	-10.6%
COc1n[nH]c(C(=O)Nc2cc(Cl)ccc2Cl)c1[N+](=O)[O-]	-1.1%	-12.3%
CCC(=O)Nc1ccc(Cl)c(NC(=O)c2cccnc2)c1	i	-10.0%
Cn1c(=O)c2cc(NC(=O)NCc3ccccc3)ccc2n1C/C=C/c1ccccc1	5.1%	-26.3%
CN(c1ccc2nc3ccccc3c(=O)n2n1)C1CCCCC1	4.7%	-21.8%
O=C(O)CCC(=O)N1CCN(c2nc(-c3ccccc3)c3cc(Br)ccc3n2)CC1	i	-17.1%
CCOC(=O)C1CCN(C(=O)CSc2nc(N)cc(=O)[nH]2)CC1	-8.6%	-14.7%
CCC(CO)NCC#Cc1ccccc1 (configuration not stated)	-14.0%	-6.0%
C[C@H](CO)N1C[C@H](C)[C@@H](CN(C)S(=O)(=O)c2ccc(Oc3ccccc3)nc2)OCc2cnnn2CCCC1=O	-8.5%	-12.6%
CCN(C(=O)C1CCCCC1)c1nnc(-c2cccnc2)s1	i	-4.8%
C=CCc1ccc(OCCOCCOc2ccccc2[N+](=O)[O-])c(OC)c1	/	-2.7%
CCOC(=O)N1CCC(NS(=O)(=O)c2ccc3c(c2)CCN3C(C)=O)CC1	-20.8%	-17.3%
O=Cc1ccc(OC(=O)c2cc(Cl)nc3ccccc23)cc1	i	-5.4%
CCOC(=O)C1CCN(c2c(NCc3ccc(C(=O)N(C)Cc4ccccc4)cc3)c(=O)c2=O)CC1	-3.0%	-4.1%
CCCCn1c(N)c(N(CC(C)C)C(=O)C2CC(=O)N(Cc3ccccc3)C2)c(=O)[nH]c1=O (configuration not stated)	-17.7%	-10.3%
COc1cc(OC)cc(C(=O)Nc2ccc3nc4n(c(=O)c3c2)CCCCC4)c1	-8.9%	-9.4%
COc1ccccc1N1CCN(c2cnccn2)CC1	i	-13.7%

Two neighbouring records out of the list so far, for reference:
Structure	VACV mCherry inh	Vaccinia Venus
COc1cc(OC)cc(C(=O)Nc2ccc3nc4n(c(=O)c3c2)CCCCC4)c1	-8.9%	-9.4%
COc1ccccc1N1CCN(c2cnccn2)CC1	i	-13.7%

The list goes on.
Structure	VACV mCherry inh	Vaccinia Venus
CSc1ccc(/C=C/C(=O)OCC(=O)NC2CCCCCC2)cc1	-1.7%	-9.0%
O=C(c1cc(S(=O)(=O)N2CCOCC2)ccc1F)N(CCc1ccccc1)Cc1ccccc1	-12.1%	-3.9%
CC(=O)c1cccc(NC(=O)c2ccccc2N(C)S(=O)(=O)c2ccc(C)cc2)c1	i	-17.3%
CC(NC(=O)CCNC(=O)c1ccco1)c1ccccc1 (configuration not stated)	-7.4%	-3.1%
Cc1ccccc1CC(=O)Nc1cccnc1	-11.6%	-9.0%
Cc1cnc(C(=O)OCC(=O)NC2CCCCC2)cn1	-9.2%	-7.9%
CCCCOCP(=O)(CC)COCCCC	/	-7.1%
Cc1ccc(C(=O)CSc2nnc(-c3ccncc3)n2C)cc1	-8.5%	-4.8%
COCCCNC(=O)C1CC(=O)N(Cc2ccc(OC)cc2)C1 (configuration not stated)	i	-9.2%
Cc1cccc(NC(=O)COC(=O)C(NC(=O)c2cccc(S(=O)(=O)N3CCOCC3)c2)C(C)C)c1 (configuration not stated)	-12.1%	-6.6%
C=CCN(c1ccccc1)S(=O)(=O)c1cccc(C(=O)NCC2CCCO2)c1 (configuration not stated)	-21.9%	-10.8%
CC(C)(C)NC(=O)c1ccc(COc2ccc(Cl)cc2Cl)o1	-13.6%	-13.9%
C=CCOC(=O)C1C(=O)CC(C)(O)C(C(=O)OCC=C)C1c1ccc(OCC)cc1 (configuration not stated)	/	-28.9%
Cc1ccc(NC(=O)c2ccc3nc(Cc4ccccc4)oc3c2)cc1F	-18.7%	-18.6%
CCCCN(CCCC)CC(O)COc1ccc(Br)cc1 (configuration not stated)	-10.4%	-1.7%
Cc1cccc(C)c1NC(=O)CN(Cc1ccccc1)Cc1ccccc1	i	-4.7%
CC(C)[C@H](NC(=O)c1ccc([N+](=O)[O-])cc1Cl)C(=O)N1CCN(C/C=C/c2ccccc2)CC1	?	-4.1%
CCCCn1nnnc1C1(C)CCC(=O)N1CCOc1ccccc1 (configuration not stated)	6.7%	4.3%
c1ccc(-c2nc(C3CCCCC3)no2)cc1	-13.6%	-0.7%
CC(=O)Nc1ccc(C(=O)N2CCCC(c3cc(C(=O)Nc4ccccc4)no3)C2)cc1 (configuration not stated)	1.9%	-1.3%
O=CNCCCc1nc2ccccc2n1Cc1cccc2ccccc12	-3.1%	-20.4%
Clc1cccc(Cl)c1Cn1c(-c2cccnc2Cl)nc2ccccc21	-29.1%	-14.9%
Cc1ccc(C(=O)NC(=S)Nc2nc(-c3cccc([N+](=O)[O-])c3)cs2)c(Cl)c1	-4.4%	-16.6%
O=C(Nc1ccc(Br)cc1Cl)c1ccc(OCC2CCCO2)cc1 (configuration not stated)	-20.5%	-21.7%
O=C(NCc1cccs1)c1ccc(CS(=O)Cc2ccc(Cl)cc2)o1 (configuration not stated)	-3.9%	-7.4%
Cc1cc(C)n(CCc2nc(-c3ccc(C(C)(C)C)cc3)cs2)n1	i	-18.7%
Cc1cc2n(n1)CCCN2C(=O)Nc1ccc(F)c(Cl)c1	-3.6%	-9.2%
Cn1c(=O)n(C)c2cc(C(=O)Nc3ccc(Br)cc3)ccc21	-3.4%	-19.9%
CCCCc1ccc(NC(=S)NCCc2ccc(F)cc2)cc1	i	-19.6%
CCN1CCCC(OC(=O)C(c2ccccc2)c2ccccc2)C1 (configuration not stated)	-0.8%&-16.0%	-15.3%&-3.3%
Nc1nc2ccc(Oc3ccccc3)cc2s1	-4.8%	-4.3%
CC1(C)CC(NCc2ccccc2)CCO1 (configuration not stated)	-12.7%	-17.4%
NS(=O)(=O)c1cccc(NS(=O)(=O)c2cccc(C(F)(F)F)c2)c1	-10.3%[7.34 µM]	-4.7%[7.34 µM]

Compound activity: PubChem, National Center for Advancing Translational Sciences (NCATS)
